High-throughput results as filed in PubChem BioAssay.
miR-21 FLuc – qHTS Assay for Modulators of miRNAs and/orActivators of miR-21; HeLa miR-21 FLuc reporter, luciferase, 48 h; Potency, µM (top dose mostly 38.3 µM), without a hit: at the highest dose reporter change, positive = more light; 340,000 tested, under 10 active; active = well fitted rising curve with a large enough effect; inconclusive = small, poorly fitted or top-dose-only effect; inactive = no such curve, though single readings can be large or run the other way;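 further: % of control where 0% means no effect; miR-21 action dims this reporter so a rising signal means less miR-21 action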
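Luminescence from a firefly luciferase reporter carrying a miR-21 binding site downstream, stably expressed under a CMV promoter in HeLa cells that make miR-21 endogenously, reports miRNA modulation after 48 h compound exposure up to approximately 40uM final.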
* marks the source's active call; other numbers are inactive results; ? = inconclusive; [ ] = another dose, or the depositor's remark. Only part of the results is shown (hit frequency here may not be typical).

Sample of the layout:
SMILES	miR-21 FLuc
Cc1ccc(N2C(=O)c3oc4cc(C)c(C)cc4c(=O)c3C2c2cccc(O)c2)nc1 (centres undefined)	-3.7%
Cc1ccc(C2C=C(c3ccccc3)Nc3nc(NS(=O)(=O)c4ccc(C)cc4)nn32)cc1 (centres undefined)	-4.8%
CCN(CCCNC(=O)c1cc2c(=O)n(C)c3ccccc3c2s1)c1ccccc1	-1.4%

All compounds of this part, repeating the preview:
SMILES	miR-21 FLuc
Cc1ccc(N2C(=O)c3oc4cc(C)c(C)cc4c(=O)c3C2c2cccc(O)c2)nc1 (centres undefined)	-3.7%
Cc1ccc(C2C=C(c3ccccc3)Nc3nc(NS(=O)(=O)c4ccc(C)cc4)nn32)cc1 (centres undefined)	-4.8%
CCN(CCCNC(=O)c1cc2c(=O)n(C)c3ccccc3c2s1)c1ccccc1	-1.4%
CCCN(CCC)CCNC(=O)Cn1cnc2sc(C)c(S(=O)(=O)N3CCC(C)CC3)c2c1=O	3.0%
Cc1nc2ncnn2c(C)c1CCC(=O)N1CCN(c2cccc(Cl)c2)CC1	2.8%
CCC1=Nc2cc(C(=O)NCCCOC)ccc2Sc2ccc(Br)cc21	28.7%
CCC(=O)N1c2ccc(S(=O)(=O)N3CCN(c4ccccc4)CC3)cc2CC1C (centres undefined)	-2.5%
COc1ccccc1N1CCN(c2cc(C)nc3nncn23)CC1	5.4%
O=C(Nc1ccc(F)cc1F)N1CCN(c2ccc(Cl)c(Cl)c2)CC1	18.9%
Cc1ccc(C(=O)Nc2ccc3oc(-c4ccc(C(C)(C)C)cc4)nc3c2)cc1	-9.4%

Carrying on:
SMILES	miR-21 FLuc
COc1ccc(NC(=O)c2sc3nc4c(cc3c2N)CCCCCC4)cc1OC	-3.4%
O=c1c2oc3ccccc3c2n(Cc2cccc(F)c2)c(=O)n1Cc1ccco1	-1.3%
CCOc1ccccc1CNC(=O)c1cnc2c(-c3ccc(OCC)c(OCC)c3)c(C)nn2c1C	-1.6%
CCc1nn2c(=O)cc(COC(=O)C3CCCCC3)nc2s1	4.5%
O=C(NCC(c1cccnc1)N1CCc2ccccc21)c1cccc(F)c1 (centres undefined)	12.4%
CCOC(=O)c1cccc(NC(=O)CSc2ncc3c(n2)-c2ccc(Cl)cc2N(Cc2ccccc2)S3(=O)=O)c1	0.6%
COc1ccc([C@]23Cc4ccccc4C(O2)C2=C(CC(C)(C)CC2=O)O3)cc1	-17.7%[7.66 µM]
COc1ccc(CNC(=O)c2cc3c(=O)n(Cc4ccco4)ccc3nc2C)c(OC)c1	-11.0%
CCC(C(=O)Nc1cccc(Cl)c1C)n1nc(C)c2sc3ccccc3c2c1=O (centres undefined)	-19.3%
Cc1ccc(C(=O)Nc2sc3c(c2C(=O)NCc2ccco2)CCC(C(C)(C)C)C3)cc1 (centres undefined)	-1.0%

Next section
SMILES	miR-21 FLuc
CCCCCOc1ccc(NC(=O)Cn2c(-c3cncs3)nc3ccccc32)cc1	10.3%
CCC(=O)N1c2ccccc2CC1C(=O)NCc1ccc(N(C)C)cc1 (centres undefined)	-0.2%
COc1cccc(-c2noc(COc3cccc(C)c3C)n2)c1	-31.6%
CCOCCCNC(=O)C(c1ccc(Cl)cc1)N(Cc1ccc2c(c1)OCO2)C(=O)c1ccccc1O (centres undefined)	24.5%
COc1cccc(CNC(=O)c2cc3c(s2)-c2ccccc2OC3)c1	3.2%
CCOc1ccc(NC(=O)Cn2nc(Cc3cccnc3)c3ccccc3c2=O)cc1	-6.0%
CCOC(=O)c1ccccc1NC(=O)C(=O)Nc1ccc2nc3n(c(=O)c2c1)CCCCC3	-12.0%
Cc1ccc(S(=O)(=O)c2nc(S(=O)(=O)c3ccc(C)cc3)c(NC(C)C)s2)cc1	-3.4%
CCOc1ccc(NC(=O)CC2C(=O)N(c3ccccc3)C(=O)N2CCc2ccc(OC)cc2)cc1 (centres undefined)	2.5%
CCC(=O)N1CCc2cc(CNS(=O)(=O)c3cccs3)ccc21	-1.4%

Next section:
SMILES	miR-21 FLuc
N#Cc1ccccc1Cn1c(SCC(=O)Nc2ccc(F)cc2)nc2ccccc21	23.6%
CCOc1ccc2nc(N(Cc3cccnc3)C(=O)C3CCCCC3)sc2c1	3.3%
CCc1cccc(CC)c1NC(=O)Cn1c(=O)c(-c2cc(C)ccc2NC(C)=O)nc2ccccc21	3.0%
CCOC(=O)C1CCCN(C(=O)c2ccc3c(c2)sc2nc(-c4ccc(CC)cc4)cn23)C1 (centres undefined)	3.0%
Cc1nnc(SCc2ccccc2)c2cc3sccc3n12	-69.0%
CCOc1ccc(CNC(=O)Cn2ccc3cc(S(=O)(=O)N4CCCCC4)ccc32)cc1	0.5%
Cc1ccc2c(c1)-c1nc(-c3ccccc3)cc(-c3ccccc3)c1CO2	-0.5%
CCSc1oc(-c2ccco2)nc1S(=O)(=O)c1ccc(Br)cc1	3.9%
O=C(NCCc1ccccc1)c1ccc(CSc2nc3ccncc3n2Cc2ccccc2F)cc1	-9.2%
COc1cccc(CNC(=O)CCCCCn2c(=O)[nH]c3cc(OC)c(OC)cc3c2=O)c1	2.1%

Going on with the list:
SMILES	miR-21 FLuc
COc1ccc(Cl)cc1NC(=O)CCn1c(=O)c2cccn2c2ccccc21	8.9%
CCOc1ccccc1CNC(=O)CCc1c(C)nn(-c2ccc(N3CCOCC3)nn2)c1C	-4.5%
Cc1ccc(C)c(S(=O)(=O)c2nnn3c2nc(Nc2ccc(F)c(Cl)c2)c2sccc23)c1	-6.3%
COc1cc(C(=O)Nc2ccc3oc(-c4ccc(C)c(Br)c4)nc3c2)cc(OC)c1OC	-5.4%
COc1ccc(C2C(C(=O)Nc3ccc(C)cc3C)=C(C)Nc3nc4ccccc4n32)c(OC)c1 (centres undefined)	-1.4%
CC1CCC(C(=O)NC(C(=O)OCC(=O)c2ccccc2)C(C)C)CC1 (centres undefined)	2.5%
CCCOc1ccc(C2c3c(oc4ccc(F)cc4c3=O)C(=O)N2CCc2ccc(OC)cc2)cc1 (centres undefined)	-0.8%
CCOc1ccc(NC(=O)C(=O)NCC(c2cccnc2)N2CCc3ccccc32)cc1 (centres undefined)	-10.5%
COc1cccc(NC(=O)c2oc3ccccc3c2NC(=O)c2ccc(OC(C)C)cc2)c1	-33.8%
CC1=C(C(=O)Nc2ccc(C)cc2C)C(c2ccc(C(=O)O)cc2)n2nc(SCc3ccccc3)nc2N1 (centres undefined)	1.8%

Three of these compounds, reformatted:
| miR-21 FLuc | SMILES |
| --- | --- |
| -1.0% | Cc1ccc(C(=O)Nc2sc3c(c2C(=O)NCc2ccco2)CCC(C(C)(C)C)C3)cc1 (centres undefined) |
| 10.3% | CCCCCOc1ccc(NC(=O)Cn2c(-c3cncs3)nc3ccccc32)cc1 |
| -0.2% | CCC(=O)N1c2ccccc2CC1C(=O)NCc1ccc(N(C)C)cc1 (centres undefined) |

(further entries)
SMILES	miR-21 FLuc
Cc1cc(-c2ccccc2)n2nc(-c3ccccc3)cc2n1	-22.9%
Cc1cc(C)cc(Nc2nc3cc(Cl)c(Cl)cc3nc2-n2nc(C)cc2C)c1	-1.6%
CCN(CC)c1ccc2cc(-c3nc(-c4cc(OC)c(OC)c(OC)c4)no3)c(=O)oc2c1	-3.4%
CCc1ccccc1NC(=O)CSc1nc2n[nH]c(C)c2c(=N)n1-c1cccc(C)c1	0.0%
CCCCC(=O)Nc1ccc(C(=O)OCc2cc(=O)n3nc(C4CC4)sc3n2)cc1	0.7%
CCS(=O)(=O)N1CCc2cc(C(=O)NCCc3ccc(OC)cc3)ccc21	-7.8%
Cc1ccc(C(=O)Nc2ccc(F)cc2)cc1S(=O)(=O)N1CCCCCC1	16.3%
O=C(NC1CCCC1)c1ccc2c(=O)n(Cc3ccccc3)c(SCc3cccc([N+](=O)[O-])c3)nc2c1	-0.6%
O=C(CSc1nc2c([nH]c3ccccc32)c(=O)n1-c1ccc(Cl)cc1)N1CCCC1	4.0%
COc1ccccc1-n1c(=O)c2c3c(sc2n(C)c1=O)CN(C(C)=O)CC3	-15.9%

Next structures.
SMILES	miR-21 FLuc
COC(=O)c1sc2cccc(F)c2c1S(=O)(=O)Nc1cc(C)c(Cl)cc1OC	9.5%
CCOC(=O)c1c(C)oc2nc(C)nc(NCCCN3CCN(c4cc(C)ccc4C)CC3)c12	-3.3%
CCOc1cccc2sc(N(CCN(CC)CC)C(=O)c3ccco3)nc12	-1.1%
COCCCNC(=O)c1ccc(CSc2nc3cccnc3n2Cc2ccc(OC)cc2)cc1	16.1%
CC1CCc2noc(NC(=O)c3ccc([N+](=O)[O-])cc3)c2C1 (centres undefined)	-33.5%
CN(C)S(=O)(=O)c1ccc2c(c1)N(CC(=O)N1CCN(c3cccc(Cl)c3)CC1)CCS2	-1.6%
Cc1cc(C)cc(NC(=O)C(CC(C)C)NC(=O)C2CCCCC2)c1 (centres undefined)	-0.1%
CCOC(=O)c1ccccc1NC(=O)N1CCCN(S(=O)(=O)c2ccc3c(ccn3CC)c2)CC1	20.2%
CCOc1ccccc1C(=O)Nc1ccc(S(=O)(=O)Nc2nc(C)cc(C)n2)cc1	-25.7%
CC(=O)N1CCCc2cc(S(=O)(=O)N3CCCC(C(=O)N4CCN(c5ccccc5F)CC4)C3)ccc21 (centres undefined)	26.1%

More records:
SMILES	miR-21 FLuc
COc1ccccc1CNC(=O)CCC1N=C2c3ccccc3N=C(SCc3ccc(C)cc3)N2C1=O (centres undefined)	?
Cc1cc(OCC(=O)Nc2c(C(=O)c3ccccc3)oc3ccccc23)cc(C)c1Cl	0.1%
O=S(=O)(NCc1ccc(Cl)cc1)c1ccc(N2CCCCS2(=O)=O)cc1	?
COc1cc(NC(=O)C(CC(C)C)NS(=O)(=O)c2ccc3c(c2)oc(=O)n3C)c(C(=O)O)cc1OC (centres undefined)	-0.6%
CCCc1cc(C(=O)Nc2c(C)nn(Cc3ccc(C)cc3)c2C)no1	28.4%
Cc1ccc(NC(=O)CSc2nc3c(sc4ccccc43)c(=O)n2CCCC(=O)NC2CCCC2)cc1C	-0.4%
CCOc1c(Br)cc(C2CC(=O)Nc3cc4c(cc32)OCO4)cc1OC (centres undefined)	?
Cc1cccc(OCC(=O)Nc2ccc(Cl)c(-c3nc4ncccc4o3)c2)c1C	8.9%
CCSc1nnc2c(n1)OC(c1ccc(C)cc1)N(C(C)=O)c1ccccc1-2 (centres undefined)	0.4%
O=C(CSc1nc2c(c(=O)[nH]1)CCC2)Nc1ccccc1F	11.9%

New compounds follow:
SMILES	miR-21 FLuc
Fc1ccc(-c2nc(Nc3ccc(F)c(Cl)c3)nc3c2COc2ccccc2-3)cc1	-9.4%
O=C(O)c1ccc2oc(=O)n(Cc3ccccc3)c2c1	5.3%
Cc1cc(C)c(NC(=O)c2cc(C)nc3c2c(C)nn3-c2cccc(F)c2)c(C)c1	-0.6%
COc1ccc(NC(=O)c2nn(C)c3c2CSc2ccc(C)cc2-3)cc1OC	1.3%
Cn1nnnc1SCCCNCc1cccc(OCc2ccccc2F)c1	-26.1%
COc1cc(NC(=O)CC(C)n2nc(C)cc2C)cc(OC)c1 (centres undefined)	0.3%
Cc1cccc(CN2CCN(CC(=O)Nc3c(C)cccc3C)S2(=O)=O)c1	16.0%
COc1ccc(CCNC(=O)Cn2nnc(-c3cccc(C(F)(F)F)c3)n2)cc1OC	-9.2%
CC(C)N(C(=O)Cn1cc(S(=O)(=O)Cc2ccc(C(F)(F)F)cc2)c2ccccc21)C(C)C	-1.4%
Cc1ccc2c(c1)N(C(=O)N1CCC(C(=O)NCc3ccccc3C)CC1)CC(C)O2 (centres undefined)	-11.6%

More compounds
SMILES	miR-21 FLuc
Cc1ccc2oc(C(=O)N(Cc3sccc3C)C3CCS(=O)(=O)C3)c(C)c2c1 (centres undefined)	10.5%
CC1CCN(S(=O)(=O)c2ccc3c(c2)N(CC(=O)Nc2ccc(F)c(Cl)c2)C(=O)CO3)CC1	-2.6%
Cc1ccccc1Nc1sc(C(=O)c2ccccc2)c(N)c1S(C)(=O)=O	-13.2%
CC1CCCCN1CCCNC(=O)c1cc(Sc2cccc(Cl)c2)nc2ccccc12 (centres undefined)	-4.1%
COC(=O)CN1C(=O)CSc2ccc(S(=O)(=O)Nc3ccc(Cl)cc3C)cc21	20.2%
Cc1ccccc1CNC(=O)CN1CCSc2ccccc21	-38.8%
CCn1cc2nc(SCC(=O)Nc3ccc(OC)cc3OC)n(Cc3ccc(Cl)cc3)c(=O)c2n1	8.3%
COCCNC(=O)Cn1cc2c(n1)-c1c(oc(C(=O)N3CCCC3)c1C)CC2	-4.7%
CCC1CCCCN1C(=O)CSc1nnc(-c2ccc(OC)c(OC)c2)o1 (centres undefined)	-1.0%
CC(=O)N1CCCc2cc(S(=O)(=O)N3CCC(C(=O)NCc4cccc(C)c4)CC3)ccc21	-1.0%

The results go on:
SMILES	miR-21 FLuc
Cc1cccc(Nc2ncc(NC(=O)c3cccc(F)c3)c(Nc3cccc(C)c3)n2)c1	0.0%
CCc1ccccc1NC(=O)c1noc2c1CC(C(C)(C)C)CC2 (centres undefined)	0.0%
Cc1c(Cl)cccc1-n1nc(C)c2c(C)cc(=O)n(CC(=O)N3CCCc4ccccc43)c21	15.7%
COc1cccc(Nc2nnc(-c3cc4ccc(O)cc4oc3=O)s2)c1	-11.3%
COc1cccc(N2CCN(c3nc4ccc(C(=O)c5ccccc5)cc4n4c(C)nnc34)CC2)c1	-4.9%
COc1ccc2c(c1)c(=O)c(S(=O)(=O)c1ccccc1)cn2CC(=O)Nc1ccc2c(c1)OCO2	-17.9%
Cc1ccc(CCNC(=O)C2CCN(S(=O)(=O)c3ccc4c(ccn4C)c3)CC2)cc1	4.7%
CCn1cc(C(=O)NCCc2ccccc2)c(=O)c2cc(S(=O)(=O)N3CCCCCC3)ccc21	9.5%
